# VDR inh – blocks the human vitamin D receptor. VDR-SRC2-3 peptide fluorescence polarization, 2 h. actives 0.93% (n = 400,000). Potency, µM, for the others: max response, negative = inhibition, hits mostly inhibitors. P11473. AID 504847; active = well fitted inhibition curve with a large enough effect; inconclusive = small, poorly fitted or top-dose-only effect, or another doubt; inactive = no such curve, though single readings can be large or run the other way; also: series mostly up to about 120 µM
# Target sequence (P11473 whole entry, looked up): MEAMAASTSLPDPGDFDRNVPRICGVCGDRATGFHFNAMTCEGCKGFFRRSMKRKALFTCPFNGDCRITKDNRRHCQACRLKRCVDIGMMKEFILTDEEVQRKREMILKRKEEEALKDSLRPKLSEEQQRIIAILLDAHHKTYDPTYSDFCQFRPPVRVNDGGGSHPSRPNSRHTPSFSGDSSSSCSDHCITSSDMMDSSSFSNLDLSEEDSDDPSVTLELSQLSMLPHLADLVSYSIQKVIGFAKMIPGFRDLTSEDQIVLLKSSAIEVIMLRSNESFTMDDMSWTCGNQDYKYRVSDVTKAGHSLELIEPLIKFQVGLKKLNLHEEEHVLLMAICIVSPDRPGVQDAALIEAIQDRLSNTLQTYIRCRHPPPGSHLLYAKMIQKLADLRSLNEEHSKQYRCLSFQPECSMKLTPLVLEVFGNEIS
#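 VDR–SRC2-3 interaction, FP format. Cmpds 23 nl via pintool, brief spin, 2 h ambient incubation.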
# An asterisk follows results filed as active; ? = inconclusive; & = joins results of further samples. % is scaled to controls: 0 for no effect and ±100 for the full control effect; potency is read from the fitted curve at half-maximal effect. A portion of the library; count on the stated rates, not on these rows.
mol	VDR inh
CC(=O)Nc1ccc(C=NNc2nnc(NN=Cc3ccc(NC(C)=O)cc3)c3ccccc23)cc1	17%
Cc1ccc(S(=O)(=O)CNC(=S)c2cccc(C)c2)cc1	4%
CC(C)N1CCN(Cc2cc3ccccc3[nH]2)CC1CCO (centres undefined)	-28%
CCN(CC)CCCC(C)NC(=O)c1ccc(C(F)(F)F)cc1 (centres undefined)	-5%
Cc1ccc(-c2nnc(N3CCN(C(=O)CSc4ncn[nH]4)CC3)c3ccccc23)cc1	-2%
O=S(=O)(c1ccccc1)c1nnn2c1nc(NCc1ccc(F)cc1)c1sccc12	3%
O=C(CSCc1c(Cl)cccc1Cl)NCc1ccccn1	-10%
Cn1c(N)c(C(=O)CN2CCc3ccccc3C2)c(=O)n(C)c1=O	-18%
CCN1CCCC1CNCc1ccc(OCc2ccc(Cl)nc2)c(OC)c1 (centres undefined)	24%
Nc1nc(CN2CCN(c3ccccn3)CC2)nc(Nc2ccc(Cl)cc2)n1	0%

# Among those listed so far, 3 have a carbonyl joined to an NH by a bond outside any ring:
mol	VDR inh
CC(=O)Nc1ccc(C=NNc2nnc(NN=Cc3ccc(NC(C)=O)cc3)c3ccccc23)cc1	17%
CCN(CC)CCCC(C)NC(=O)c1ccc(C(F)(F)F)cc1 (centres undefined)	-5%
O=C(CSCc1c(Cl)cccc1Cl)NCc1ccccn1	-10%

# Other records follow.
mol	VDR inh
Cc1ccc(NC(=O)CNNC(=O)c2cccc([N+](=O)[O-])c2)cc1[N+](=O)[O-]	7%
COc1ccccc1-c1cccc([C@@H]2C[C@H]3[C@H](CON3C)CN2C(C)=O)c1	-18%
COc1ccccc1C(=O)Nn1cnnc1	-19%
CCOC(=O)c1ccc(CN(Cc2ccc(C)cc2)S(=O)(=O)c2ccc(NC(C)=O)cc2)cc1	15%
Nc1c(S(=O)(=O)c2ccccc2)c2nc3ccccc3nc2n1/N=C/c1cccc(O)c1	22%
O=C(CSc1ccc2ccccc2n1)c1ccccc1	-3%
Cc1ccc(-c2cn3c(n2)sc2cc(C(=O)NCCCc4ccccc4)ccc23)c(C)c1	11%
COc1ccc(C(=O)Nc2nc(-c3nnn(-c4ccc(C(C)C)cc4)c3C)ns2)cc1	7%
CCOC(=O)c1c(NC(=O)CCCOc2ccc(C)cc2)sc2c1CCC(C)C2 (centres undefined)	-18%
CCOC(=O)N1CCC(N2C(=O)c3ccc(C(=O)NCCC(C)C)cc3C2=O)CC1	-17%

mol	VDR inh
COc1ccc(OC)c(S(=O)(=O)N(C)CC(=O)N2CCN(c3ccc(F)cc3)CC2)c1	4%
CC(NCC(=O)Nc1ccccc1C(=O)NC1CC1)c1cccs1 (centres undefined)	-1%
Cc1ccc(-c2cc(C(F)(F)F)n3ncc(-c4ccccc4)c3n2)cc1	-18%
CC(C)c1ccc(NC2CCCN(C(=O)c3ccsc3)C2)cc1 (centres undefined)	-15%
O=S1(=O)CCC(N2CCOCC2)C1 (centres undefined)	-10%
COC(=O)c1ccc(CSc2nc(-c3ccccc3)cs2)o1	7%
CCN(C(=O)CSc1nc2nc(C)cc(C)n2n1)c1cccc(C)c1	-5%
CC(C)(C)c1ccc(C(=O)NC2CCS(=O)(=O)C2)cc1 (centres undefined)	16%
Cc1ccccc1CS(=O)(=O)Cc1ccc(C(=O)NCc2ccccn2)o1	9%
Cc1nnc(SCc2ccc(F)cc2)s1	18%

mol	VDR inh
CCOC(=O)c1ccc(NS(=O)(=O)c2ccc(-c3coc(C)n3)cc2)cc1	-4%
COc1ccccc1NC(=O)NN1CCCCC1	2%
NC(=O)N/N=C/c1ccc([N+](=O)[O-])o1	-4%&-2%&-5%
CC(=O)c1cccc(NC(=O)NNC(=O)c2ccc(Cl)cc2Cl)c1	-3%
Cc1ccc(CN(C)C(=O)c2cc(Br)c(Br)s2)o1	-10%
CN(C)c1ccc(NC(=O)Cc2ccccc2)c2ccccc12	6%
CCn1c(=O)c(C(=O)NCc2ccc(OC)c(OC)c2)c(O)c2ccccc21	-5%
Cc1ccc(-n2cccc2/C=C2\C(=N)N3N=C(c4ccco4)SC3=NC2=O)cc1	5%
O=S(=O)(NCCCCCNS(=O)(=O)c1ccccc1)c1ccccc1	-22%
O=C(NCC(F)(F)F)Nc1nnc(C(F)(F)F)s1	-8%

mol	VDR inh
O=S(=O)(c1cccs1)N1CCN(c2ccccc2F)CC1	-3%
Cc1cc(C(=O)CSc2nnc(C3CC3)n2C2CC2)c(C)n1C(C)C	27%
CCc1ccc(/C=C/c2c[nH]c3ccccc23)[n+](CC)c1	-3%
O=C(NCCCCNC(=O)c1c(Cl)cccc1Cl)c1c(Cl)cccc1Cl	-1%
C[C@H](CO)N1C[C@H](C)[C@@H](CN(C)C)Oc2c(NC(=O)CCC(F)(F)F)cccc2C1=O	-3%
O=C(CCC1N=C2c3ccccc3N=C(SCc3ccc(Cl)cc3)N2C1=O)NCCc1ccccc1 (centres undefined)	5%
COc1ccccc1-c1ccc(=O)n(CC(=O)NCC2CCCO2)n1 (centres undefined)	1%
Cc1ccc(S(=O)(=O)N(CCC(=O)O)Cc2ccc(Cl)cc2)cc1	3%
O=C(c1ccc(Cl)cc1Cl)C1(n2cncn2)Oc2ccccc2C1O (centres undefined)	-15%
Cc1cccc(C)c1NC(=S)/C(=C(\[O-])c1cccs1)[n+]1ccccc1	-13%

mol	VDR inh
COc1ccc(N(Cc2cc(=O)[nH]c3ccccc23)C(C)=O)cc1	-11%
CC(C)OP(=O)(OC(C)C)C(Nc1ccccc1)c1ccc2c(c1)OCO2 (centres undefined)	-8%
CCCCNC(=O)c1sc(=S)n2c1[nH]c(=O)c1ccccc12	?
Cc1ccc(-c2cc(C(=O)Nc3cc(C)ccc3C)[nH]n2)c(O)c1	-7%
O=C(/C=C\c1ccccc1)Nc1nccs1	6%
Cc1ccc(C(=O)N/C(=C\c2ccc(Cl)cc2)C(=O)NC2CCCCC2)cc1	-8%
CCOC(=O)c1ccc(NC(=O)N2CCc3ccccc3C2)cc1	13%
O=C(CCc1nc2ccccc2c(=O)[nH]1)Nc1nnc(SCc2ccccc2)s1	-1%
N=C1C(c2nc(-c3ccc(Cl)cc3)cs2)=C(O)CN1NC(=O)c1ccc(O)cc1	-22%
COc1cccc(C(=O)NC2=NCCS2)c1OC	-5%

# Overlap with the part before: 7 entries, then new ones.
mol	VDR inh
Cc1ccc(-c2cc(C(=O)Nc3cc(C)ccc3C)[nH]n2)c(O)c1	-7%
O=C(/C=C\c1ccccc1)Nc1nccs1	6%
Cc1ccc(C(=O)N/C(=C\c2ccc(Cl)cc2)C(=O)NC2CCCCC2)cc1	-8%
CCOC(=O)c1ccc(NC(=O)N2CCc3ccccc3C2)cc1	13%
O=C(CCc1nc2ccccc2c(=O)[nH]1)Nc1nnc(SCc2ccccc2)s1	-1%
N=C1C(c2nc(-c3ccc(Cl)cc3)cs2)=C(O)CN1NC(=O)c1ccc(O)cc1	-22%
COc1cccc(C(=O)NC2=NCCS2)c1OC	-5%
O=C(NCc1ccccn1)c1ccc(-c2ccccc2)cc1	16%
O=C(Nc1c(C(=O)N2CCOCC2)cnn1-c1ccccc1)c1cccc(F)c1	4%
Cc1ccc2nc(-c3ccccc3)cc(C(=O)N3CCc4ccccc4C3)c2c1	-25%
Cc1nc(Nc2ccccc2)sc1C(=O)c1ccc(F)cc1	-3%
O=C(CSc1ccc(-c2ccco2)nn1)NCc1ccc(F)cc1	-13%
CCOc1ccc(-n2c(=O)c3c(C)c(C)sc3n(Cc3cc(=O)n4cc(Cl)ccc4n3)c2=O)cc1	10%
CCCc1cc(=O)[nH]c2nnc(SCC(=O)Nc3nnc(SCC)s3)n12	4%
Cc1cc(NC(=O)c2cc3ccccc3o2)cc(C)c1OCC(=O)N1CCOCC1	13%
Cc1ccc(-c2nn(CCC(=O)Nc3ccc(OC(F)(F)F)cc3)c(=O)c3ccccc23)cc1	-3%
O=c1[nH]c(CN2CCN(Cc3ccc4c(c3)OCO4)CC2)nc2ccccc12	-7%

CCCCS(=O)(=O)c1oc(-c2ccc(F)cc2)nc1S(=O)(=O)c1ccccc1
- VDR inh: ?

CC(C)CCn1c(Oc2ccc(Cl)cc2)nc2c1c(=O)n(C)c(=O)n2C
- VDR inh: 27%

O=C(c1ccccc1F)N1CCN(Cc2ccc3c(c2)OCO3)CC1
- VDR inh: 5%

COc1cccc(C(=O)NCC(=O)N/N=C/c2c(C)[nH]c3ccccc23)c1
- VDR inh: -10%

COc1cc(-c2nnc(SCC(=O)N3CCOCC3)o2)cc(OC)c1OC
- VDR inh: ?

O=C(C[n+]1ccc2ccccc2c1)c1ccc(NC(=O)c2ccccc2)cc1
- VDR inh: -15%

CCOc1ccc(/C=C/c2nc3ccccc3n2S(=O)(=O)c2ccc(Br)cc2)cc1
- VDR inh: -8%

Cc1cc(NC(=O)C(C)SCC(=O)OCc2ccc(Cl)cc2Cl)no1 (centres undefined)
- VDR inh: 9%

Cn1c(=O)c(C(=O)CN2CCN(S(=O)(=O)c3ccccc3)CC2)c(N)n(Cc2ccccc2)c1=O
- VDR inh: -9%

CN(C)CCNC(=O)C1CCN(c2ncnc3c2nc2n3CCCCC2)CC1
- VDR inh: 6%

C/C(=N\NC(=O)CN1CCOCC1)C(C)(C)C
- VDR inh: 18%

COc1ccccc1CNC(=O)CN1C(=O)CSc2ccc(S(=O)(=O)N(C)C)cc21
- VDR inh: 11%

CCn1nnnc1SCC(=O)NC1CCCC1
- VDR inh: 1%

Cc1ccccc1NC(=S)N1CCCN(Cc2ccc(F)cc2)C1
- VDR inh: -2%

CCCS(=O)(=O)c1nc(S(=O)(=O)c2ccc(C)cc2)c(NCc2ccccc2Cl)s1
- VDR inh: 4%

Cc1c(Cl)c([N+](=O)[O-])nn1Cc1ccc(C(=O)N/N=C\c2cc(Cl)ccc2O)o1
- VDR inh: 1%

C=CCSC1=Nc2sccc2C2=NC(=O)CN12
- VDR inh: 11%

Cc1cc(C)c(S(=O)(=O)NCc2nc3nc(C)cc(C)n3n2)c(C)c1
- VDR inh: 9%

CCOC(=O)C1=C(C)NC(C)=C(C(=O)OCC)C1c1ccc(C)o1
- VDR inh: 2%

CC(=O)OC(C(=O)NC1CCCCC1)c1cccc(F)c1 (centres undefined)
- VDR inh: -4%

Cc1cc(C)n2nc(C(=O)OCC(=O)c3ccccc3)nc2n1
- VDR inh: ?

CC(=O)c1ccc(N2CCN(S(=O)(=O)c3ccc4[nH]c5c(c4c3)CCCCC5)CC2)cc1
- VDR inh: 14%

CCOC(=O)c1oc2c(CN3CCN(C)CC3)c(O)ccc2c(=O)c1-c1ccc(Br)cc1
- VDR inh: -20%

CCCCCCCCCC[N+](C)(C)CC/C=C1/c2ccccc2Sc2ccc(Cl)cc21
- VDR inh: -9%

CCNc1ncc2ncc(=O)n(C3CC3)c2n1
- VDR inh: 3%

O=[N+]([O-])c1cccc(/C([O-])=C(/C(=S)Nc2ccccc2F)[n+]2ccccc2)c1
- VDR inh: -13%

Cn1c(SCC(=O)c2ccc(F)cc2)nnc1-c1ccccn1
- VDR inh: 3%

COC(=O)C1=C(C(=O)c2ccccc2)C(c2ccc(O)c(OC)c2)n2nnnc2N1 (centres undefined)
- VDR inh: -9%

NNC(=O)c1cnn(Cc2ccccc2)c1N
- VDR inh: 28%

CC[C@]12CCCN3CCc4c(n(c5ccccc45)C(=O)C1)C32 (some centres undefined)
- VDR inh: -2%

CSc1ccc(CN2CCC(CO)(Cc3ccc(Cl)cc3)CC2)cc1
- VDR inh: -10%

Cc1ccc(C(=O)NCC(=O)OCC(=O)c2ccc3c(c2)OCCO3)cc1C
- VDR inh: -2%

O=C(Nc1ccc(O)cc1)c1cccc(Oc2ccc([N+](=O)[O-])cc2)c1
- VDR inh: 23%

Cc1ccc(S(=O)(=O)N(C)C)cc1NC(=O)COC(=O)CNC(=O)C12CC3CC(CC(C3)C1)C2
- VDR inh: -11%

C#CC(C)(CC)NC(=O)c1cnn2c(C(F)F)cc(-c3ccccc3OC)nc12 (centres undefined)
- VDR inh: 12%

O=c1c(S(=O)(=O)c2ccccc2)cn(Cc2ccc(F)cc2)c2cc(N3CCOCC3)c(F)cc12
- VDR inh: 3%

COc1ccc(/C=C2\SC(=S)N(CCCC(=O)NNC(=O)c3ccccc3O)C2=O)cc1
- VDR inh: -2%

CCCOC(=O)c1[nH]c2c(c1C)C(=O)CC(c1cccs1)C2 (centres undefined)
- VDR inh: 3%

O=C(CN1CC(c2ccccc2)CC1=O)Nc1ccc2c(c1)OCO2 (centres undefined)
- VDR inh: -1%

N#Cc1ccccc1S(=O)(=O)N1CCN(C(=O)C2CCC2)CC1
- VDR inh: -22%

Cc1ccc2oc(-c3cccc(NC(=O)c4ccc(N5CCC(C)CC5)c([N+](=O)[O-])c4)c3)nc2c1
- VDR inh: -1%

O=[N+]([O-])c1cc2c(cc1/C=N/n1c(-c3ccccc3)n[nH]c1=S)OCO2
- VDR inh: -3%

COc1ccc(NC(=O)Cc2cccc3ccccc23)cc1
- VDR inh: -7%

Cc1cccc(C)c1NC(=O)CNC(=O)C(Cc1ccccc1)NC(=O)c1ccccc1 (centres undefined)
- VDR inh: -11%

CC(=O)OCC(=O)Nc1cc(S(=O)(=O)N2CCCCCC2)ccc1Cl
- VDR inh: 1%

Cc1ccc(SC(C)C(=O)O/N=C(\N)c2ccncc2)cc1 (centres undefined)
- VDR inh: -18%

COc1ccc(C(=O)NC(=S)N2CCCCC2)cc1[N+](=O)[O-]
- VDR inh: -13%

C=CC[C@@H](CC(=O)OC(C)(C)C)C(=O)OC[C@@H]1CCCN1C(=O)[C@@H](CC=C)CC(=O)N[C@@H](CO)Cc1ccccc1
- VDR inh: 9%

CC(C)C[C@@H]1NC(=O)[C@H](Cc2ccc(O)cc2)NC(=O)c2cc([N+](=O)[O-])cc(I)c2NCCC[C@@H](C(N)=O)NC1=O
- VDR inh: 10%

O=C(Nc1ccccc1N1CCOCC1)c1cccs1
- VDR inh: 2%

CCOC(=O)/C(=N\Nc1ccccc1Cl)N1CCN(c2ccccc2OC)CC1
- VDR inh: -15%

# Screens (PubChem)
